Tgondii IFNg = T. gondii growth inhibition under IFN-gamma; 69,000 tested, 3.8% active; Toxoplasma gondii growth in IFN-gamma-treated host cells; hits give low values; reference of the scale not given here; activity change, negative = inhibition, %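 (about 20 µM by stock and volumes)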;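 active means below -70%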;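 further: host cells are HeLa cells infected with Toxoplasma gondii; parasite growth read as luciferase light; one replicate is shown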
Active calls of the source: *; i = inactive. The list is partial; count on the stated rates, not on these rows.

SMILES	Tgondii IFNg
CC(NC(=O)CSc1nc2ccccc2c(=O)[nH]1)c1cnn(C)c1 (stereo unspecified)	-1
COC(=O)c1cc(C)nc2c1c(=O)n(Cc1nc(-c3ccc(C(C)C)cc3)oc1C)c(=O)n2C	3
O=C(c1ccnnc1)N1CCC2(CCC(=O)N2CC2CC2)CC1	-43
CC(C)NC(=O)Nc1ccc2c(c1)C(=O)N([C@@H](C)CO)C[C@@H](C)[C@H](CN(C)C(=O)C1CCCCC1)OCCCC[C@H](C)O2	333
CCCc1cc(=O)[nH]c(SCC(=O)N2CCN(c3ccccc3OC)CC2)n1	27
O=C(NC1Cc2ccccc2C1)c1cncc(Br)c1	-61
C[C@@H]1CC(=O)NCC/C=C\C[C@H](c2cccc(Cl)c2)NC1=O	-49
CC(=O)c1c(C)nc(-c2ccc(C(F)(F)F)cc2)nc1SCc1ccccc1	-78*
CCc1nc(Cn2ccnc2-c2nc3c(s2)CCCC3)no1	-37
CN1CCC2(CCN(C(=O)COCc3nc4ccccc4[nH]3)CC2)C1	-3
O=S(=O)(NCCN1CCOCC1)c1cccc(C(F)(F)F)c1	-6
CO[C@H](CN(C)S(=O)(=O)c1cccc(Cl)c1)[C@H](C)CN(C(=O)Nc1ccccc1F)[C@H](C)CO	5
Cc1ccc(C(=O)N2CCC3(CC2)Nc2cc(F)ccc2-n2cccc23)cc1	75
CCc1ccc(CN2CCC3(CC2)CN(c2ccccc2)C3=O)o1	-4
CCc1ccccc1NC(=O)CN1CCC2(CC1)N=C(c1cccc(Cl)c1)C(=O)N2	15
O=C1[C@@H]2C[C@H](O)CCN2C(=O)CN1CCCNc1cccnc1	0
CN(C)C(=O)C1Cn2ccnc2C2(CCN(S(=O)(=O)c3ccc(F)cc3)CC2)O1 (stereo unspecified)	3
CCS(=O)(=O)Nc1ccc2c(c1)C(=O)N(C)[C@H]1CC[C@@H](CC(=O)N[C@H]3CCN(Cc4ccccc4)C3)O[C@@H]1CO2	8
COC(=O)[C@@H]1C[C@H](NC(=O)c2cc3ccccc3n2C)CN1C	21
Cc1ccccc1-c1nc2cnccn2c1NCCC(=O)N1CCC(C)CC1	103

Part of the list above, bar-delimited.
Molecule | Tgondii IFNg
Cc1ccc(C(=O)N2CCC3(CC2)Nc2cc(F)ccc2-n2cccc23)cc1 | 75
CCc1ccc(CN2CCC3(CC2)CN(c2ccccc2)C3=O)o1 | -4
CCc1ccccc1NC(=O)CN1CCC2(CC1)N=C(c1cccc(Cl)c1)C(=O)N2 | 15
O=C1[C@@H]2C[C@H](O)CCN2C(=O)CN1CCCNc1cccnc1 | 0

(more compounds)
SMILES	Tgondii IFNg
CN(C)CCOCc1nnn2c1CN(S(=O)(=O)C1CC1)CCC2	3
COc1c(CC(=O)c2cc3c(cc2O)OC(C)(C)C(O)C3)ccc2c1C=CC(C)(C)O2 (stereo unspecified)	-27
CC(C)Cc1cc(C(=O)Nc2nc(-c3ccc(OC(C)C)cc3)cs2)nc(=O)[nH]1	24
CC(c1ccc(F)cc1)n1cc(C(=O)NCc2cccnc2)nn1 (stereo unspecified)	-8
NC(=O)[C@H](Cc1ccccc1)NCC(=O)NC1CCCCCCC1	-39
O=C(NCCc1csc(-c2ccc(C(F)(F)F)cc2)n1)C(=O)Nc1ccccc1[N+](=O)[O-]	242
COc1ccc(CCN(C)CC(=O)Nc2c(C)cc(C)cc2C)cc1OC	8
COc1cccc(NC(=O)C[C@@H]2CC[C@@H]3[C@@H](COc4ccc(NS(=O)(=O)c5cccc(F)c5)cc4C(=O)N3C)O2)c1	-41
COc1cccc(NC(=O)N[C@@H]2CC[C@@H](CC(=O)N3CCN(C)CC3)O[C@@H]2CO)c1	11
COc1ccccc1-c1nccn1C(C)c1cnn(-c2ccccc2)c1 (stereo unspecified)	12
CCn1cnc2sc(C(=O)NCc3nc(Cc4ccccc4)no3)c(C)c2c1=O	-10
O=C1CCCC2(CCN(Cc3ccc(F)cc3)CC2)N1	41
COCCCNC(=O)Cn1c(=O)n(-c2cccc(OC)c2)c(=O)c2ccccc21	25
Cc1nc(NCC2CC2)nc2c1COCC21CCN(CC(=O)N(C)C)C1 (stereo unspecified)	-10
O=C(NCCc1csc(-c2ccccc2)n1)c1ccccc1C(F)(F)F	i
COC(=O)CSc1ncnc2c(C)csc12	32
COc1cccc2c1c(NC(=O)c1cc3ccccc3s1)nn2C	-23
COc1cc(-c2nc3ccccc3n2C)cc(OC)c1OC	2
Cc1noc(C)c1NC(=O)N1C[C@@H](O)COC[C@@H]2O[C@@H](CC(=O)N[C@H]3CCN(Cc4ccccc4)C3)CC[C@H]21	22
COc1ccc(-c2nc[nH]c2-c2ccccc2)cc1Cn1cncn1	4

By substructure: the compounds so far containing fluorine (10)
SMILES	Tgondii IFNg
CC(=O)c1c(C)nc(-c2ccc(C(F)(F)F)cc2)nc1SCc1ccccc1	-78*
O=S(=O)(NCCN1CCOCC1)c1cccc(C(F)(F)F)c1	-6
CO[C@H](CN(C)S(=O)(=O)c1cccc(Cl)c1)[C@H](C)CN(C(=O)Nc1ccccc1F)[C@H](C)CO	5
Cc1ccc(C(=O)N2CCC3(CC2)Nc2cc(F)ccc2-n2cccc23)cc1	75
CN(C)C(=O)C1Cn2ccnc2C2(CCN(S(=O)(=O)c3ccc(F)cc3)CC2)O1 (stereo unspecified)	3
CC(c1ccc(F)cc1)n1cc(C(=O)NCc2cccnc2)nn1 (stereo unspecified)	-8
O=C(NCCc1csc(-c2ccc(C(F)(F)F)cc2)n1)C(=O)Nc1ccccc1[N+](=O)[O-]	242
COc1cccc(NC(=O)C[C@@H]2CC[C@@H]3[C@@H](COc4ccc(NS(=O)(=O)c5cccc(F)c5)cc4C(=O)N3C)O2)c1	-41
O=C1CCCC2(CCN(Cc3ccc(F)cc3)CC2)N1	41
O=C(NCCc1csc(-c2ccccc2)n1)c1ccccc1C(F)(F)F	i

(listing goes on)
SMILES	Tgondii IFNg
CCn1ccnc1CN1CC(C(=O)Nc2cccc(OC)c2)C1	23
Cc1cccc(CN2CC3(CCN(Cc4nccs4)CC3)OCC2=O)n1	6
O=C(c1csc(-c2cccs2)n1)N1CCCn2cncc2C1	10
CNC(=O)NC(=O)Cn1cnc2sc(-c3ccccc3)cc2c1=O	-18
C=CCN1CCC2(CCCN(C(=O)C3CCOC3)C2)C1=O (stereo unspecified)	-4
O=C(c1ccoc1)N1CCc2ncnc(N3CCOCC3)c2CC1	57
COC(=O)[C@@H]1C[C@@H](NC(=O)NCc2ccccc2F)CN1C	-6
Cc1ccccc1-c1cc(O)c2c(c1)CN(Cc1nccs1)CCO2	-7
COCC(=O)N1CC2(C1)CN(Cc1ccccc1F)[C@H](CO)c1[nH]c3cc(OC)ccc3c12	165
N/C(=N\OS(=O)(=O)c1ccc2ccccc2c1)c1cccnc1	1
CO[C@H]1CCN(C(=O)c2cnoc2C)[C@H]1Cc1ccccc1	47
O=C(CCn1c(=O)oc2ccccc21)NC1=NCCS1	-40
CN(C)Cc1ccc(C(=O)N2CCc3[nH]c4ccccc4c3C2)cc1	-1
COc1cccc2ccc(CN3CCc4[nH]nc(-c5ccccc5F)c4C3)nc12	3
O=C(NCCc1csc(-c2ccc(F)cc2)n1)C(=O)Nc1cccc(F)c1	-68
CC1CCN(CCOCCOc2ccccc2Br)CC1	-8
O=C(Nc1ccc(F)cc1F)c1nccnc1Oc1cccc(C(F)(F)F)c1	-54
CO[C@H]1CC[C@H]2CCOc3ccc(C#N)cc3C(=O)N(C)C[C@@H](c3ccccc3)CC(=O)N(C)C[C@H]1O2	0
COc1cc(NC(=O)Cn2nc(C(F)(F)F)c(Br)c2C)c(OC)cc1Cl	17
CCOC(=O)Cc1ccc(NC(=O)N2CCC3(CC2)Nc2ccccc2-n2cccc23)cc1	266
COCCN1C(=O)N(Cc2cccc3ccccc23)C(=O)C12CCN(Cc1ccccn1)CC2	-3
Cc1cc(C)c(Cn2cncn2)cc1CN1CCC(N)(C(=O)O)C1 (stereo unspecified)	0
O=C(c1cccc(N2CCCC2=O)c1)N1C[C@@H]2C3CCC(CC3)[C@@H]2C1	-1
COC(=O)C[C@@H]1CC[C@H]2[C@@H](COC[C@@H](O)CN2S(=O)(=O)c2ccccc2OC)O1	9
Cc1nc(CN2CCC3(CCCO3)CCC2=O)co1 (stereo unspecified)	-37
O=C(Cc1ccc(Cl)cc1)N1CCCC1c1ccnc2nccn12 (stereo unspecified)	-1
CSc1cccc(NC(=O)N2CCC(c3nc(C(=O)N4CCCC4)c(C)o3)CC2)c1	-54
CS(=O)(=O)N1CC2(CCOCC2)c2cc(NC(=O)c3ccco3)ccc21	48
COC(=O)CN(C)Cc1cccc(C(=O)Nc2cccc(F)c2F)c1	6
COc1cccc(-c2ccc([C@H]3[C@@H](C#N)N(C(=O)Cc4ccncc4)[C@@H]3CO)cc2)c1	-3
C[C@@H]1CN([C@H](C)CO)S(=O)(=O)c2ccc(-c3ccc(F)cc3)cc2O[C@H]1CN(C)Cc1ccccc1C(=O)O	32
Cc1cccc2[nH]c(C3CCN(c4ccnc(C(=O)NC(C)C)c4)CC3)nc12	-2
C[C@@H]1CN([C@@H](C)CO)C(=O)c2cccc(NS(=O)(=O)c3cn(C)cn3)c2O[C@H]1CN(C)Cc1ccc(Oc2ccccc2)cc1	-44
CS(=O)(=O)N1CCOCC1c1nccc(NCc2ccco2)n1 (stereo unspecified)	106
CCS(=O)(=O)N1CCC2(CC1)Nc1cc(OC)ccc1-n1cccc12	-14
CC(C)CNC(=O)C1=NOC2(CCN(Cc3ccc(C(C)C)cc3)C2)C1 (stereo unspecified)	-82*
CNC(=O)CN1CCO[C@@H]2CN(Cc3nccs3)C[C@@H]21	251
Cc1nc2ccccc2nc1CSCc1ccco1	41
Cc1cc(-c2ccc(C(C)N3CCCCC3)cc2)cnc1-n1cnnc1 (stereo unspecified)	-5
CC(C)NC(=O)N1CCO[C@]2(CCC[C@H]2COCc2nccs2)C1	3
C[C@@H]1CN([C@@H](C)CO)C(=O)c2c(c3ccccc3n2C)-c2ccccc2CO[C@@H]1CN(C)S(=O)(=O)c1ccc([N+](=O)[O-])cc1	-50
COc1ccc(CCNC(=O)C2CCCN2S(=O)(=O)c2ccc(C)cc2)cc1 (stereo unspecified)	-8
O=C(c1cccc(Cl)c1)N1C[C@H]2CN(c3ncccn3)C[C@@H]2C1	9
C=CCN1CC2(CCN(Cc3cnn(C)c3)CC2)OCC1=O	2
CCn1c2ccccc2c2cc(CN3CCN(C(=O)CCC4CCCC4)CC3)ccc21	-61
Cc1nc(CN2C3(CCN(C(=O)c4ccccc4)C3)c3ccccc3S2(=O)=O)cs1 (stereo unspecified)	-22
c1ccc(Oc2nc(NC3CCCCC3)c3[nH]cnc3n2)cc1	-48
Cc1cc(N2CC(c3ccnc(N(C)C)n3)C2)ncn1	0
CN(C)CC(=O)N1[C@@H](C#N)[C@H](c2ccccc2-c2ccccc2F)[C@@H]1CO	14
Cc1ccc(-c2ccnc(NCCSc3nnnn3C)n2)c(C)n1	-6

Next part:
SMILES	Tgondii IFNg
CCC(=O)Nc1ccc(NC(=O)CC2CN(C(C)C)CCO2)cc1Cl (stereo unspecified)	52
Cc1cccc(NC(=O)Cn2ncc3c(N4CCCC4)ncnc32)c1C	60
C[C@@H](NC(=O)[C@H]1[C@H](CO)[C@H]2Cn3c(ccc(-c4ccccc4)c3=O)[C@H]2N1C)c1ccccc1	2
CCOc1ccccc1-c1nc(CN(c2ccccc2OCC)S(=O)(=O)c2ccccc2)c(C)o1	-54
COc1ccc(-c2nc(C)c(CCNC(=O)C(=O)Nc3ccc(C)cc3C)s2)cc1OC	1
CC(Cc1ccc2c(c1)OCO2)CN(CCN1CCOCC1)Cc1cccnc1 (stereo unspecified)	-55
Cc1ccc(Cl)c(NC(=O)c2cccc(CN3CCCC(O)C3)c2)c1 (stereo unspecified)	9
COCCC(=O)N1CCC(c2nc(Nc3cccc(F)c3)cc(-c3cccnc3)n2)CC1	-12
CC(C)c1nccn1CCCNC(=O)c1ccc(-c2cc3ccccc3o2)nc1	-32
COc1ccc2cc(-c3cc(C(F)(F)F)nc(N)n3)ccc2c1	4
Cc1ccc2nc(CN(C)Cc3ccccc3C(=O)O)[nH]c2c1	5
CCNC(=O)C[C@H]1CC[C@@H]2[C@H](COC[C@H](O)CN2C(=O)c2ccccn2)O1	9
CC(C)NC(=O)c1cc2c(nc1N(C)C)CCN(CCc1ccccc1)CC2	-15
COc1ccc(S(=O)(=O)Nc2cncc(C(=O)N3CCN(Cc4ccc5c(c4)OCO5)CC3)c2)cc1	2
C[C@H](NC(=O)C[C@@H]1C=C[C@H](NC(=O)c2cccnc2)[C@H](CO)O1)c1ccccc1	-32
COc1ccccc1NC(=O)C(=O)NCCc1sc(-c2ccc(C)cc2)nc1C	2
O=C(c1ccccc1Cl)N(Cc1ccccc1)c1ccccn1	4
CC(=O)N1CCC2(C=C(C(=O)NC3CC3)c3ccccc32)CC1	1
O=C1C2C3C=CC(C2C(=O)N1Cc1cccnc1)C1C(=O)N(Cc2cccnc2)C(=O)C31 (stereo unspecified)	18
Cc1[nH]c2ccc(CNC(=O)C(C)n3cc(Cl)cn3)cc2c1C (stereo unspecified)	1
O=C(Nc1ncccn1)c1sc2ccccc2c1Cl	38
CN1C[C@@H]2CN(C(=O)c3ccnn3C)C[C@H]2C1=O	12
CO[C@@H]1CO[C@@]2(CCCN(C(=O)c3cccc(C)n3)C2)C1	11
CO[C@@H]1CN(C)C(=O)c2cc(NS(=O)(=O)CC(F)(F)F)ccc2OC[C@H](C)NC[C@H]1C	400
CCOC(=O)c1nnc(-c2ccc(C(F)(F)F)cc2)o1	-37
COCC#Cc1ccc([C@H]2[C@H](CO)N3C(=O)CN(C(=O)C4CCCCC4)C[C@@H]23)cc1	25
Cc1oc(-c2ccc(C(=O)NCCC(C)C)cc2)nc1CN1CCN(c2ccccc2)CC1	-38
CN1C(=O)C(CCC(=O)O)c2ccccc21 (stereo unspecified)	27
OC[C@@H]1[C@H](c2ccc(C#Cc3ccccc3F)cc2)[C@@H]2CN(CC3CCOCC3)CCCCN12	-2
CCc1csc(CNC(=O)C2CC(=O)N(c3cccc(O)c3)C2)n1 (stereo unspecified)	44
COCCN1CCC(C(=O)N(C)Cc2cccc(Cl)c2)C1 (stereo unspecified)	-4
O=C(CCC(=O)N1CCCC2(CCNCC2)CC1)c1ccc(F)cc1	-25
